Screening data deposited in PubChem BioAssay by Southern Research Institute.
Mtb growth – Mycobacterium tuberculosis H37Rv growth inhibition, putative kinase inhibitor library, confirmatory dose response (AID 2842); M. tuberculosis H37Rv growth inhibition; higher % means a stronger effect; some inactives read as strong as hits; one-dose inhibition, % at 10 µg/mL; IC90 in µg/mL for titrated hits; 24,000 tested, 5.2% active;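 active means confirmed in a dose series; about a fifth of its hits are not listed in these tables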;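 further: bacteria incubated one week before Alamar blue readout; 0% = bacteria only wells and 100% = bacteria with high antibiotic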
The depositor's hits bear a star. These rows are one share of the data. The share of hits here may be higher or lower than overall.

Molecule,Mtb growth
O=[N+]([O-])c1cccc(CSc2ccc3nnc(-c4ccccn4)n3n2)c1,39%
CCn1c(SCC(=O)Nc2c(C)cc(C)cc2C)nc2c(c1=O)SC(C)C2 (stereo unspecified),10%
CCCCc1ccc(NC(=O)COc2cccc3c2CCNC3=O)cc1,-12%
CC(=O)C(Sc1nc(-c2ccccc2F)nc2c1c(=O)n(C)c(=O)n2C)C(C)=O,1%
CC1=C(C(=O)Nc2ccc(Cl)cc2)C(c2cccc(Cl)c2)NC(=O)N1 (stereo unspecified),6%
CC1CCc2c(sc(NC(=O)c3cc4ccccc4c(=O)o3)c2C#N)C1 (stereo unspecified),-20%
O=c1oc2cc(O)ccc2cc1-c1nnc(Nc2cccc(C(F)(F)F)c2)s1,5%
COc1ccc2nc(NC(=O)c3c(F)cccc3F)sc2c1,14%

Among those listed so far, these have four or more nitrogen atoms.
Molecule,Mtb growth
O=[N+]([O-])c1cccc(CSc2ccc3nnc(-c4ccccn4)n3n2)c1,39%
CC(=O)C(Sc1nc(-c2ccccc2F)nc2c1c(=O)n(C)c(=O)n2C)C(C)=O,1%

More records:
Molecule,Mtb growth
CC(C)CN1N=C(c2ccccc2)Cn2c1nc1c2c(=O)n(CC(C)C)c(=O)n1C,-9%
COc1ccc(-n2nc3c(c2NC(=O)C2(c4ccc(Cl)cc4)CCCC2)CS(=O)C3)cc1 (stereo unspecified),11%
CCOC(=O)N1CCN(C(=O)CSc2ccc3nnc(-c4ccc(OC)c(OC)c4)n3n2)CC1,-3%
O=C(Nc1nc(-c2ccc3c(c2)CCCC3)cs1)c1ccc(Cl)s1,21%
O=C(Cn1cnc2c(cnn2-c2ccccc2)c1=O)Nc1ccccc1F,-2%
Nc1c(C(=O)c2ccc(F)cc2)oc2ccccc12,14%
CCOc1ccccc1C(=O)NCCc1cc2c(C)ccc(C)c2[nH]c1=O,-3%
O=C(NCc1cccs1)C(=O)c1c[nH]c2ccccc12,12%
O=c1oc2ccccc2cc1-c1csc(Nc2nc3ccc(F)cc3s2)n1,-5%
Cc1nnc(SCC(=O)N2CCC(Cc3ccccc3)CC2)n(N)c1=O,-1%
CCOC(=O)c1nn(-c2ccc(Cl)cc2)c(=O)c2c(NC(=O)CC3CCCCC3)scc12,3%
O=c1[nH]cc(S(=O)(=O)Nc2ccccc2F)c(=O)[nH]1,0%
Cc1ccc(C2C3C(=O)NC(=O)C3ON2c2ccccc2C)cc1 (stereo unspecified),3%
Cc1csc2ncc(C(=O)Nc3ccccc3C(F)(F)F)c(=O)n12,6%
Cc1ccc(-c2nnc(NC(=O)CCSc3ccccc3)o2)c(C)c1,15µg/mL*
Cc1csc2ncc(C(=O)Nc3ccccc3F)c(=O)n12,-5%
O=C(COc1ccccc1)Nc1cc(=O)[nH]c(=O)[nH]1,7%
COc1cccc(NC(=O)C(=O)NCCCN(C)C)c1,-15%
CCS(=O)(=O)Nc1cccc(C2=NN(S(=O)(=O)CC)C(c3ccc(C)cc3)C2)c1 (stereo unspecified),-3%
O=C(CSc1nnc(Cc2cc(=O)[nH]c(=O)[nH]2)n1-c1ccc(Cl)cc1)Nc1nccs1,-2%
Cc1ccc(-c2nnc3ccc(SCC(=O)Nc4cc(C)ccc4C)nn23)cc1,-2%
COc1ccc(NC(=O)c2oc3ccccc3c2NC(=O)c2ccccc2I)c(OC)c1,6%
O=C(CSC1=NS(=O)(=O)c2ccccc2N1)Nc1ccc2c(c1)OCCO2,-12%
O=C1NC(=Nc2ccccc2)SC1Cc1ccccc1Cl (stereo unspecified),-3%
CCOC(=O)C(C)Oc1cc(C)cc2oc(=O)c3c(c12)CCCC3 (stereo unspecified),-11%
COc1ccc(-c2nnc3ccc(SCC(=O)NC4CCCC4)nn23)cc1,-2%
COC(=O)c1cccc(NC(=O)c2sc3nc(C)cc(C)c3c2N)c1,1%
COc1ccc(-c2nnc3ccc(SCc4ccc(C)cc4)nn23)cc1OC,-12%
Cc1cc(NS(=O)(=O)c2ccc(NC(=O)c3ccc4ccccc4c3)cc2)no1,-5%
CCOC(=O)c1nn(-c2ccc(Cl)cc2)c(=O)c2c(NC(=O)c3cc(OC)c(OC)c(OC)c3)scc12,9%
CCOC(=O)Cn1c(=O)c2c(nc3n(CC(=O)OCC)c(-c4ccccc4)cn23)n(C)c1=O,-5%
CC(C)C(=O)Nc1nnc(C23CC4CC(CC(C4)C2)C3)s1,71%
CCCn1c(SCC(=O)O)nc2c1c(=O)[nH]c(=O)n2C,-10%
O=C(CCn1nnc2ccccc21)N/N=C/c1cccc(O)c1,-3%
Cn1c(=O)c2c(SCC(=O)Nc3ccc(Cl)cc3)nc(-c3ccco3)nc2n(C)c1=O,-3%
O=C(C(=O)N1CCC2(CC1)OCCO2)c1c[nH]c2ccccc12,-3%
O=c1[nH]cc(S(=O)(=O)Nc2cc(F)ccc2F)c(=O)[nH]1,-6%
COC(=O)N1CCc2c(sc(NC(=O)c3cccc(N4C(=O)CCC4=O)c3)c2C(N)=O)C1,-8%
Cc1cc(NC(=O)CSC2=Nc3cccnc3Nc3ccccc32)no1,1%
O=C(O)CCC(C(=O)O)N1C(=O)/C(=C/c2ccc(-c3ccc([N+](=O)[O-])cc3)o2)SC1=S (stereo unspecified),-17%
O=C(Nc1nnc(-c2ccc3c(c2)CCCC3)o1)c1ccccc1Cl,1.1µg/mL*
O=C(NCCC1=CCCCC1)C1CCC(Cn2c(=O)[nH]c3ccsc3c2=O)CC1 (stereo unspecified),-8%
CN(Cc1ccccc1)S(=O)(=O)c1ccc(C(=O)Nc2cc(C(F)(F)F)ccc2Cl)cc1,-7%
NC(=O)c1c(NC(=O)c2ccc(Oc3ccccc3)cc2)sc2c1CCCCC2,12%
CNC(=O)c1ccsc1NC(=O)c1ccc2c(c1)CCCC2,9%
O=C(CSc1ccc2nnc(-c3ccccc3)n2n1)NCc1ccco1,2%
O=C1Nc2ccccc2N2CCCC12 (stereo unspecified),82%
Cc1ccnc(SCc2cc(=O)c(OC(=O)c3ccc(Cl)cc3Cl)co2)n1,-12%
COc1ccc(-n2ccnc(SCC(=O)NCc3ccccc3)c2=O)cc1OC,-5%
Cc1ccc(C)c(NC(=O)CN2C(=O)C3(SCC(=O)N3c3ccc(F)c(F)c3)c3ccccc32)c1 (stereo unspecified),6%
CCOc1ccc(NC(=O)c2sc3nc(-c4ccc(Cl)cc4)cc(C(F)(F)F)c3c2N)cc1,7%
O=c1c2ccccc2oc2cc(O)ccc12,50µg/mL*
Cc1csc2ncc(C(=O)Nc3ccccc3)c(=O)n12,-7%
O=C(NNc1nc2ccc(Cl)cc2s1)c1nc2ccccc2s1,3.1µg/mL*
O=C(NCc1ccco1)c1ccc2c(c1)C(=O)c1ccccc1-2,-20%
CCOc1ccc2nc(Nc3nc4ccc5sc(C)nc5c4s3)sc2c1,75%

Next section:
Molecule,Mtb growth
CCCc1cc(=O)[nH]c2nnc(SCC(=O)NCCOC)n12,1%
Cc1cc(OC(=O)c2cc(C(F)(F)F)cc(C(F)(F)F)c2)c([N+](=O)[O-])c(=O)[nH]1,21%
CCOc1ccc(NC(=O)Nc2cc(-c3ccccc3)sc2C(=O)OC)cc1,-6%
CS(=O)(=O)c1cccc(-c2nnc(NC(=O)c3cccc(Cl)c3)o2)c1,78%
O=[N+]([O-])c1ccc2ncnc(Nc3cccc(O)c3)c2c1,-9%
CN(C)S(=O)(=O)c1ccc(C(=O)Nc2nnc(-c3ccc(Br)cc3)o2)cc1,6.7µg/mL*
O=C(Nc1nnc(-c2cccc([N+](=O)[O-])c2)s1)c1ccccc1[N+](=O)[O-],-1%
Cc1c(C)n2c(SCC(=O)Nc3ccccc3C(F)(F)F)nnc2[nH]c1=O,-7%
O=C(CSc1ncnc2c1oc1ccccc12)Nc1ccc(F)cc1F,4%
O=C(NCc1cccnc1)NC1CC(=O)N(c2cccc(F)c2)C1 (stereo unspecified),-1%
Cc1nnc(NC(=O)CN2CCC3(CC2)NC(=O)N(Cc2ccccc2)C3=O)s1,-21%
CCCCCCCn1c(SCC(C)O)nc2c1c(=O)[nH]c(=O)n2C (stereo unspecified),5%
CCOc1ccc(NC(=O)Cn2ccc3c(OC)cccc3c2=O)cc1,0%
Cc1ccc(C(=O)c2cn(CC(=O)Nc3ccc4c(c3)OCO4)c3ccc(F)cc3c2=O)cc1C,-4%
CCOc1ccc(NC(=O)c2oc3ccccc3c2NC(=O)/C=C\c2ccccc2)cc1,7%
O=C(/C=C/c1ccco1)c1cc2cc(Cl)ccc2oc1=O,1%

Of the compounds above, six have a CF3 group.
Molecule,Mtb growth
O=c1oc2cc(O)ccc2cc1-c1nnc(Nc2cccc(C(F)(F)F)c2)s1,5%
Cc1csc2ncc(C(=O)Nc3ccccc3C(F)(F)F)c(=O)n12,6%
CN(Cc1ccccc1)S(=O)(=O)c1ccc(C(=O)Nc2cc(C(F)(F)F)ccc2Cl)cc1,-7%
CCOc1ccc(NC(=O)c2sc3nc(-c4ccc(Cl)cc4)cc(C(F)(F)F)c3c2N)cc1,7%
Cc1cc(OC(=O)c2cc(C(F)(F)F)cc(C(F)(F)F)c2)c([N+](=O)[O-])c(=O)[nH]1,21%
Cc1c(C)n2c(SCC(=O)Nc3ccccc3C(F)(F)F)nnc2[nH]c1=O,-7%

Following part:
Molecule,Mtb growth
O=C(Nc1nnc(-c2ccc(Cl)cc2Cl)s1)c1ccccc1C(F)(F)F,0%
Cn1c(/C(C#N)=C/c2c[nH]c3ccccc23)nc2ccccc21,10µg/mL*
COc1cccc2sc(Nc3nc(-c4cc5ccccc5oc4=O)cs3)nc12,19%
COc1ccc(NC(=O)CSc2ccc3nnc(-c4ccccn4)n3n2)cc1,2%
COCCNC(=O)CSc1nc(N)c(NC(=O)c2ccco2)c(=O)[nH]1,8%
COc1ccc(-c2nc(SCC(=O)Nc3ccc4c(c3)OCCO4)c3c(=O)n(C)c(=O)n(C)c3n2)cc1,4%
O=C(Nc1nc(-c2ccc3ccccc3c2)cs1)c1ccc(S(=O)(=O)N2CCCC2)cc1,-2%
Cc1ccc(C)c(Nc2nc(N3CCOCC3)nc3nccnc23)c1,13%
Cn1c(N=Nc2c(O)[nH]c3ccccc23)nc2c1c(=O)n(Cc1ccccc1)c(=O)n2C,-6%
COc1ccc(C(=O)Nc2sc3c(c2C(N)=O)CCN(C)C3)cc1,11%
Nn1c(SCc2cccc3ccccc23)nncc1=O,7%
CCCSc1nc2c(c(=O)[nH]c(=O)n2C)n1CC(O)COc1ccccc1C (stereo unspecified),25%
O=C1NC(=Nc2cccc(Cl)c2)S/C1=C/c1cccs1,20%
NC(=O)c1oc2ccccc2c1NC(=O)c1ccc2ncsc2c1,0%
COc1ccc(NC(=O)Cn2cc(C(=O)c3ccc(C)c(C)c3)c(=O)c3cc(F)ccc32)cc1,1%
O=C(CSc1nccn(-c2ccc(F)c(Cl)c2)c1=O)Nc1ccc(Cl)cc1F,-15%

A draw from above in order of molar mass, largest number first.
Molecule,Mtb growth
Cn1c(N=Nc2c(O)[nH]c3ccccc23)nc2c1c(=O)n(Cc1ccccc1)c(=O)n2C,-6%
NC(=O)c1oc2ccccc2c1NC(=O)c1ccc2ncsc2c1,0%
Nn1c(SCc2cccc3ccccc23)nncc1=O,7%

New compounds follow:
Molecule,Mtb growth
CCOc1cc(-c2nnc(NC(=O)C3=COCCO3)o2)cc(OCC)c1OCC,7µg/mL*
COc1ccccc1C(=O)Nc1nc2c(cc3c4c(cccc42)CC3)s1,-5%
Cc1cccc(-n2c(CNC(=O)c3ccco3)nnc2SCC(=O)Nc2ccc(F)cc2)c1,1%
Nc1n[nH]c(C(F)(F)F)c1-c1ccccc1,6%
O=C(CSc1ccc2nnc(-c3ccc(Cl)cc3)n2n1)c1ccccc1,-14%
Nn1c(SCC(=O)Nc2ccc(OC(F)F)cc2)nnc1-c1cccs1,0%
Cc1cc2cc(CCNC(=O)CCCc3ccccc3)c(=O)[nH]c2cc1C,3%
COc1ccc(N2CC(NS(=O)(=O)c3cccs3)CC2=O)cc1OC (stereo unspecified),-4%
COC(=O)c1c(N)sc(C(C)=O)c1C,-11%
Cc1ccc(CNc2nc3c(c(=O)n(C)c(=O)n3C)n2Cc2ccc(Cl)cc2)cc1,-4%
CCOC(=O)c1nn(-c2ccc(C)cc2)c(=O)c2c(NC(=O)Cc3ccccc3)scc12,-2%
CCCCOc1ccc(C(=O)CSc2nc3c([nH]2)c(=O)n(C)c(=O)n3C)cc1,10%
COc1ccc(/C=C/C(=O)O)cc1S(=O)(=O)Nc1ccc(C(=O)O)c(O)c1,13%
CCN1CCN(c2ccc(N3CCN(C(=O)c4cccc(C(F)(F)F)c4)CC3)nn2)CC1,3%
C=CCn1c(SCC(N)=O)nc2sc3c(c2c1=O)CCCC3,13%
Cc1c(C(N)=O)sc2ncn(CC(=O)NCc3ccco3)c(=O)c12,-12%
Fc1cc(F)c2nc(N3CCN(c4nc5c(F)cc(F)cc5s4)CC3)sc2c1,3%
Cc1ccc(Oc2ncnc(N)c2[N+](=O)[O-])cc1,17%
CC(=O)CSc1nc2c(c(=O)[nH]c(=O)n2C)n1CC(N)=O,9%
CCOC(=O)c1nn(-c2ccc(F)cc2)c(=O)cc1NCc1ccncc1,7%
Cc1cc2cc(CCNC(=O)/C=C\c3ccc4c(c3)OCO4)c(=O)[nH]c2cc1C,-4%
O=[N+]([O-])c1cccc(CSc2ccc3nnc(-c4ccncc4)n3n2)c1,60%
COc1ccccc1CNC(=O)CSc1ccc(-c2ccc3c(c2)OCO3)nn1,-6%
O=C(CCN1C(=O)/C(=C\c2ccco2)SC1=S)Nc1ccc(O)cc1C(=O)O,-9%
